Screens as filed in PubChem.
Cruzain inh Det: blocks cruzain activity in presence of Triton detergent. Potency, µM, for the others: max response, negative = inhibition, most hits filed as inhibitors. purified cruzain, Z-FR-AMC fluorescence, 0.01% Triton. P25779. 0.43% of 200,000 active;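 note: plate controls were neutral wells for no effect and buffer without enzyme for full effect; nearly all actives have a fitted effect of over 40% in size; top concentration of the series not given in the record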
Target sequence (P25779 123-467 limits assumed): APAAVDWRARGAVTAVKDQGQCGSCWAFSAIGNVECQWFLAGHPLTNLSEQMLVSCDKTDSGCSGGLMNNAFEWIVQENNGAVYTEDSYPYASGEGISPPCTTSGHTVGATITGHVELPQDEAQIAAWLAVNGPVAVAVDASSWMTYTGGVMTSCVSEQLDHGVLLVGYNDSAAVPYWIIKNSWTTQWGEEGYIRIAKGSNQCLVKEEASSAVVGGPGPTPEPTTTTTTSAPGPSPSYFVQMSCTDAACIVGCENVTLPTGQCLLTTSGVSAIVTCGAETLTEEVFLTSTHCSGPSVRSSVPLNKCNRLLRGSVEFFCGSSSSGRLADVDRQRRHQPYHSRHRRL
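Detergent-containing arm of a paired screen for aggregation-based inhibition: 0.01% Triton X-100 present. Cruzain at 1.5 nM cleaved 2 uM Z-FR-AMC at pH 5.5 with 5 mM DTT; AMC fluorescence gain over 60 s measured activity.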
StopGo reporter: FMDV 2A StopGo reporter, luciferase signal; human cells with a luciferase reporter of 2A StopGo recoding; control for the full effect not named in the record; Potency, µM (highest dose often 57.9 µM), without a hit: top-dose signal change, negative = less light; 1.2% of 410,000 active; AID 1159524; active = well fitted falling curve with a large enough effect; inconclusive = small, poorly fitted or top-dose-only effect; inactive = no such curve, though single readings can be large or run the other way; tested in HEK293T cells; note: % is set by controls: 0 for no effect and ±100 for the full control effect; nearly all actives have a fitted effect of over 45% in size; luciferase light after 4 h
LASV entry inh: blocks Lassa virus binding to or entry into cells; Lassa virus pseudotype entry inhibition, cell reporter; control for the full effect not named in the record; Potency, µM (series often up to 37.9 µM), for the others: top-dose activity change, negative = inhibition, usual class: inhibitors; 1.2% of 300,000 active; AID 540256; active means well fitted inhibition curve with a large enough effect; inconclusive means small, poorly fitted or top-dose-only effect, or effect the other way; inactive means flat fitted curve, though single readings scatter; tested in HEK293 cells; note: % is set by controls: 0 for no effect and ±100 for the full control effect; nearly all actives have a fitted effect of over 50% in size; luciferase read-out
SARS PLpro yeast: blocks SARS-CoV papain-like protease in a yeast assay; S. cerevisiae expressing SARS-CoV PLpro, growth rescue; control for the full effect not named in the record; Potency, µM (doses to about 32.9 µM), without a hit: at the top dose activity, positive = growth rescue; 0.19% of 330,000 active; AID 485353; active means well fitted rising curve with a large enough effect; inconclusive means small, poorly fitted or top-dose-only effect; inactive means no such curve, though single readings can be large or run the other way; note: 0% is about no effect; nearly all actives have a fitted effect of over 55% in size; growth read by luminescence after 48 h
Cruzain inh noDet: blocks cruzain activity in detergent-free assay | P25779 | purified cruzain, Z-FR-AMC fluorescence, no detergent | AID 1476 | 2.3% of 200,000 active | Potency, µM, without a hit: max response, negative = inhibition, usual class: inhibitors;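 note: plate controls were enzyme without inhibitor for no effect and buffer without enzyme for full effect; nearly all actives have a fitted effect of over 40% in size; top concentration of the series not given in the record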
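Purified cruzain at 1.5 nM, pre-incubated 15 min with compound at room temperature in 100 mM sodium acetate pH 5.5, 5 mM DTT, 0.00005% Triton X-100. Reaction started with 2 uM Z-FR-AMC; AMC fluorescence increase over 60 s gives rate.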
NS1 function inh: blocks influenza NS1 protein function. S. cerevisiae slowed by influenza A NS1, growth recovery by OD600. Potency, µM (series often up to 46.1 µM), inactives show at the top dose activity, positive = more growth. 0.4% of 270,000 active. AID 2326; active means well fitted rising curve with a large enough effect; inconclusive means small, poorly fitted or top-dose-only effect; inactive means no such curve, though single readings can be large or run the other way; note: nearly all actives have a fitted effect of over 50% in size
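Recovery from NS1-induced slow growth read by OD600 in budding yeast switched to galactose assay medium (pH 6.0, -URA) at 1:100 dilution. Compound 23 nl per well; the matching strain lacking NS1 serves as control.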
RE007 growth inh: less growth of the S. pombe RE007 Vpr strain | S. pombe RE007 Vpr strain, BacTiter-Glo ATP luminescence, 24 h; control for the full effect not named in the record | 0.21% of 360,000 active | Potency, µM (highest dose often 92.2 µM), for inactives: at the highest dose activity change, negative = less growth | AID 651644; active = well fitted falling curve with a large enough effect; inconclusive = small, poorly fitted or top-dose-only effect; inactive = no such curve, though single readings can be large or run the other way;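 note: % is set by controls: 0 for no effect and ±100 for the full control effect; nearly all actives have a fitted effect of over 50% in size; the assay follows cell death caused by Vpr and the record does not say whether a fall means rescue or toxicity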
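Fission yeast RE007 carrying one integrated HIV-1 vpr copy, seeded at OD 0.01 in PMG+AL medium with 23 nL pinned compound. Grown 24 h at 30 degrees; viability read by BacTiter-Glo luminescence after 5 min.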
Marburg entry inh: Marburg virus entry inhibition | Potency, µM (highest dose often 37.8 µM), for the others: top-dose activity change, negative = inhibition, hits mostly inhibitors | 1.8% of 300,000 active | Marburg virus pseudotyped entry inhibition, cell reporter; control for the full effect not named in the record; about a third of the inactives were read at about 46 µM; active = well fitted inhibition curve with a large enough effect; inconclusive = small, poorly fitted or top-dose-only effect, or effect the other way; inactive = flat fitted curve, though single readings scatter; tested in HEK293 cells; about a fifth of its hits are not listed in these tables; note: % is set by controls: 0 for no effect and ±100 for the full control effect; luciferase read-out
Active calls of the source: *; ? = inconclusive; . = not tested or not shown; & = joins results of further samples; [ ] = remark or other dose. Unless noted, calls come from the whole dose curve; as a rule, active = well fitted curve in the direction sought with a large enough effect; inconclusive = small, poorly fitted or top-dose-only effect, or another doubt; inactive = no such curve, though single readings can be large; an effect the other way counts as inactive or inconclusive. Potency is the fitted concentration of half-maximal effect. Not a hit list; any-hit rate near 4.7%.

SMILES	Cruzain inh Det	StopGo reporter	LASV entry inh	SARS PLpro yeast	Cruzain inh noDet	NS1 function inh	RE007 growth inh	Marburg entry inh
Cc1ccc(NCN2C(=O)C3CC=C(Cl)CC3C2=O)cc1 (stereo not given)	1.0%	0%	-10%	-5%	-26%	-2%	3%	1%
Cc1cccc(Nc2nnc(SCc3cc(=O)n4cc(C)ccc4n3)s2)c1	-9.4%	0%	14%	-6%	0%	14%	-15%	15%
CC(=O)C12C3C4C(C5C1C3C5(Br)C41OCCO1)C21OCCO1 (stereo not given)	.	2%	4%	13%	.	.	-22%	-2%
CN(C)C(=O)c1cc(C(=O)c2ccc(F)cc2Cl)c[nH]1	.	12%	26%[46.1 µM]	2%	.	4%	-1%	?
CCc1cccc(-n2c(=O)c3cccnc3n2CC(=O)NCc2ccccc2Cl)c1	-0.3%	6%	-8%[46.1 µM]	.	4%	.	.	.
CC(NC(=O)C(=O)N1CCCCC1)C(c1cccs1)N1CCN(c2ccc(F)cc2)CC1 (stereo not given)	.	-9%	.	0%	.	-6%	-1%	.
COc1cc(OC)c(C=CC(=O)c2ccccc2O)c(OC)c1	.	41%[activator]	17%	.	.	.	-8%	?
CC(C)c1nnc(NC(=O)CCC(=O)NCc2ccc(F)cc2)s1	.	0%	.	0%	.	6%	2%	.
CC1(C)CC(=O)C2=C(C1)N1C(=C(C#N)C2c2ccccc2Cl)N=C(N)c2ccccc21 (stereo not given)	-5.8%	?	-25%	17%	8%	-23%	7%	?
O=C(COC(=O)c1cccc2ccccc12)NCC1CCCO1 (stereo not given)	.	14%	.	-1%	.	.	0%	-6%[46.1 µM]
N#Cc1c(N)nc2c(c1-c1ccccc1)CCC2	.	27%	-3%	-2%	.	-3%	35%	16%&16%
Cc1ccc(-n2ncc3c(Nc4ccc(Oc5ccccc5)cc4)ncnc32)cc1	0.0%	-7%	4%[46.1 µM]	.	-3%	.	.	.
O=C(Nc1ccc(-c2cc3ccccc3oc2=O)c(Cl)c1)c1cccnc1	4.6%	.	-13%	-3%	6%	2.2µM*	12%	0%
O=C(O)C1C2C=CC(C2)C1C(=O)OC1CC2CCC1C2 (stereo not given)	0.2%	21%	-17%	-2%	-25%	-9%	3%	9%
COc1ccc2c(c1)c1c(c(=O)n(-c3ccc(F)c(Cl)c3)c(=O)n1Cc1ccccc1C)n2C	-1.5%	7%	2%[46.1 µM]	.	-7%	.	.	.
COc1cc(CCC(=O)Nc2ccc(S(=O)(=O)NC3=NCCCCC3)cc2)cc(OC)c1OC	.	12%	19%	-1%	.	.	-11%	?
CCCN1CCN(CC2=C(C(=O)OCC)C(c3ccc(OC(C)C)cc3)NC(=O)N2)CC1 (stereo not given)	-0.6%	-17%	?	.	-23%	.	.	?
NS(=O)(=O)c1ccc(NC(=O)Cc2c(F)cccc2Cl)cc1	.	-2%	-1%[46.1 µM]	-1%	.	7%	23%	-2%[46.1 µM]
CCCCC(=O)Nc1nc(C)c(-c2csc(Nc3cc(OC)ccc3OC)n2)s1	-1.8%	-3%	.	-7%	?	10%	13%	.
COc1ccc(CC(=O)Nc2cc(S(=O)(=O)N3CCCCC3)ccc2N2CCN(C)CC2)cc1	-0.5%	-6%	-6%	8%	-11%	7%	-25%	?
CCOC(=O)c1sc(NC(=O)C2CC(=O)N(c3ccc(OC)cc3)C2)nc1C (stereo not given)	.	-4%	?	-3%	.	15%	-6%	-14%[46.1 µM]
OCCCNc1nccc(-c2cc(Nc3cccc(Cl)c3)ncn2)n1	.	-24%	.	-3%	.	0%	-5%	.
COCCCNc1nc2ccccc2[nH]c1=O	.	6%	.	2%	.	5%	-11%	.
COC(=O)c1c(-c2cccc(OC)c2)csc1N	-4.4%	-7%	-8%	6%	5%	-46%	9%	-3%
CCOc1ccc(-n2cc(-c3ccccc3)c3c(NC4CCCC4)ncnc32)cc1	1.4%	-20%	9%[46.1 µM]	.	-3%	.	.	.
C=Cc1ccc(COC(=O)c2cn(CC)c3nc(C)ccc3c2=O)cc1	.	8%	12%[46.1 µM]	0%	.	-6%	5%	-1%[46.1 µM]
Oc1ccc(CCc2n[nH]c(=S)n2-c2ccc(F)cc2)cc1	.	-18%	.	1%	.	-2%	11%	.
COc1cc(C2C(C#N)=C(N)Oc3n[nH]c(-c4cccnc4)c32)cc(Br)c1O (stereo not given)	.	8%	?	23%	.	.	0%	1%[46.1 µM]
COC(=O)c1ccc(NS(=O)(=O)c2cccc3cccnc23)cc1	5.0%	41%[activator]	10%	1%	-4%	5%	-17%	-1%
Clc1ccc(-c2nnc3n2CCCCS3)cc1	-2.3%	0%	2%	-7%	-1%	24%	16%	?
COc1ccc(/C=N/NC(=O)Cn2ccnc2C)cc1OC	.	-1%	1%	0%	.	2%	8%	8%[46.1 µM]
CC[C@H](C)[C@H](NC(=O)CNC(=O)COc1cc2c(c3oc(=O)cc(C)c13)CCC(C)(C)O2)C(=O)O	.	9%	.	-1%	.	6%	0%	.
CC(=O)NCCn1c(SCC#N)nc2ccccc2c1=O	-1.8%	5%	-17%	-3%	2%	0%	-12%	?
O=C(Cn1nc(-c2ccccc2)c2ccccc2c1=O)Nc1cccnc1	-1.2%	-5%	-19%	7%	-1%	-8%	-16%	-3%
CS(=O)(=O)N1CCN(C(=O)c2ccccc2F)CC1	2.9%	2%	3%	3%	-7%	2%	21%	8%[46.1 µM]
Cc1ccc(OC(=O)c2cccc(S(=O)(=O)N3CCCC3)c2)c(-n2nc3ccccc3n2)c1	-4.4%	38%[activator]	19%	-3%	?	?	?	0%
COc1cccc(Nc2c([N+](=O)[O-])cncc2[N+](=O)[O-])c1	.	-12%	?	-5%	.	-19%	-6%	?
CC(C)Cn1cc(NC(=O)N2CCN(c3ccccc3F)CC2)c2ccccc2c1=O	-2.6%	7%	-6%[46.1 µM]	.	0%	.	.	.
CN(C)CCOc1ccc(Cl)cc1C(C)(C)C	.	-15%	18%	0%	.	-2%	-6%	-26%[46.1 µM]
O=C(COc1ccccc1F)OCC(=O)N1CCc2ccccc21	.	-13%	7%	1%	.	.	-7%	12%[46.1 µM]
O=C(Nc1ccc(F)cc1)Nc1cc(S(=O)(=O)N2CCOCC2)ccc1N1CCCC1	.	3%	?	0%	.	.	14%	-19%[46.1 µM]
COc1ccc(C(c2nnnn2C(C)(C)C)N2CCN(C(=O)c3ccco3)CC2)cc1 (stereo not given)	.	14%	.	1%	.	-1%	-14%	24%[46.1 µM]
COc1cc(CNCCN2CCOCC2)ccc1OCc1ccc(Cl)cc1Cl	-0.1%	-20%	?	-24%	-4%	6%	14%	?
COc1ccc(C(=O)COC(=O)C(CCCCN2C(=O)C3C4C=CC(C4)C3C2=O)N2C(=O)C3C4C=CC(C4)C3C2=O)cc1 (stereo not given)	-10%	.	-18%	-2%	?	2%	-9%	-23%
Nc1nc(-c2ccc(Br)cc2)c(S(=O)(=O)c2ccccc2)s1	-5.3%	13%	-2%	11%	2%	-6%	-20%	?
COC(=O)/C=c1/s/c(=C(\C#N)C(=O)NCc2ccco2)n(-c2ccc(C)cc2)c1=O	-2.3%	-18%	2%	-5%	?	17%	1%	0%
O=C(NCC1CCCO1)c1cc(-c2ccccc2F)no1 (stereo not given)	.	87%[activator]	.	-1%	.	-10%	-1%	.
Cc1cc(C)c2c(N)c(C(=O)Nc3ccccc3C(F)(F)F)sc2n1	-6.6%	66%[activator]	-13%[46.1 µM]	.	14%	.	.	.
COc1ccc(CNC(=O)c2noc(C(C)C)c2[N+](=O)[O-])cc1	1.5%	-9%	-2%	1%	-4%	11%	1%	?
CC(=O)NCc1c(Cl)cccc1-n1cccc1	3.2%	6%	-2%	10µM*	-8%	?	10%	-15%
CC1CCC(NC(=O)c2ccc3c(c2)N(Cc2ccccc2F)C(=O)c2ccccc2S3=O)CC1 (stereo not given)	2.0%	8%	-12%[46.1 µM]	.	-26%	.	.	-28%[46.1 µM]
CCc1noc(C)c1C(=O)N1CCN(S(=O)(=O)c2cccs2)CC1	.	3%	0%	-1%	.	.	6%	-8%
Cc1c2cnn(CC(=O)NCc3ccccn3)c(=O)c2c(C)n1Cc1ccc(Cl)cc1	.	-18%	.	18%	.	6%	13%	.
O=C(Nc1nccs1)c1cc(S(=O)(=O)N2CCOCC2)c(Cl)cc1Cl	-0.8%	.	?	-3%	-8%	13%	-4%	-20%
Cc1ccc(S(=O)(=O)c2nnn3c2nc(NCc2ccc4c(c2)OCO4)c2sccc23)cc1	-5.9%	-5%	3%[46.1 µM]	.	9%	.	.	.
O=S1(=O)CCN2N=C(C34CC5CC(CC(C5)C3)C4)SC2=N1	.	-21%	-16%	0%	.	.	14%	1%[46.1 µM]
COc1ccccc1OP(=O)(Nc1ccc(Br)cc1)Oc1ccccc1OC	.	22%	.	-2%	.	2%	8%	.
S=C(NCc1ccccc1)NNc1ccccc1	.	63%[activator]	19%	-5%	.	.	-20%	-7%[46.1 µM]
COc1ccc(NC(=O)C(c2ccccn2)N(C(C)=O)c2ccc(C)cc2)cc1 (stereo not given)	-1.4%	18%	-10%	1%	9%	14%	-6%	-2%
COc1ccccc1N1CCN(c2ncnc3c2c(-c2ccccc2)cn3-c2cccc(Cl)c2)CC1	-0.4%	-20%	-15%[46.1 µM]	.	?	.	.	.

Carrying on.
SMILES	Cruzain inh Det	StopGo reporter	LASV entry inh	SARS PLpro yeast	Cruzain inh noDet	NS1 function inh	RE007 growth inh	Marburg entry inh
O=C(Nc1ccc(-c2ccc3nncn3n2)cc1)c1ccc(Br)o1	.	-12%	-13%[46.1 µM]	0%	.	.	-7%	-13%[46.1 µM]
CC1CN(c2ccc(Cl)cc2)c2nc3c(c(=O)n(CC(=O)O)c(=O)n3C)n2C1 (stereo not given)	-2.6%	-16%	-1%[46.1 µM]	.	4%	.	.	-30%[46.1 µM]
COc1ccc(Nc2cc(C(=O)NCc3ccccc3OC)c3ccccc3n2)cc1	-10%	-23%	4%[46.1 µM]	.	11%	.	.	.
Cc1cccc(N(C(=O)c2sc(C)nc2C)C(C(=O)NCC2CCCO2)c2ccccc2)c1 (stereo not given)	.	-4%	?	12%	.	-2%	-7%	-1%[46.1 µM]
CC(C)Oc1ccc(CNC(=O)c2ccc(NC(=O)N3CCSc4ncccc43)cc2)cc1	-11%	-19%	0%[46.1 µM]	.	1%	.	.	.
